MbtI inh – MbtI salicylate synthase inhibition; 100,000 compounds, 0.89% hits; P9WFX0; inhibition, %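 (about 17 µg/mL by stock and volumes)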; AID 493033; purified MbtI enzyme, fluorescence intensity read-out;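 active = above 50% in both replicates, above 80% if mildly self-fluorescent; inactive = the rest, strongly fluorescent compounds included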;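 also: 0% = mean of negative and 100% = mean of positive controls; one replicate is shown; some compounds called inactive have numbers as strong as hits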
Target sequence (P9WFX0 whole entry, looked up): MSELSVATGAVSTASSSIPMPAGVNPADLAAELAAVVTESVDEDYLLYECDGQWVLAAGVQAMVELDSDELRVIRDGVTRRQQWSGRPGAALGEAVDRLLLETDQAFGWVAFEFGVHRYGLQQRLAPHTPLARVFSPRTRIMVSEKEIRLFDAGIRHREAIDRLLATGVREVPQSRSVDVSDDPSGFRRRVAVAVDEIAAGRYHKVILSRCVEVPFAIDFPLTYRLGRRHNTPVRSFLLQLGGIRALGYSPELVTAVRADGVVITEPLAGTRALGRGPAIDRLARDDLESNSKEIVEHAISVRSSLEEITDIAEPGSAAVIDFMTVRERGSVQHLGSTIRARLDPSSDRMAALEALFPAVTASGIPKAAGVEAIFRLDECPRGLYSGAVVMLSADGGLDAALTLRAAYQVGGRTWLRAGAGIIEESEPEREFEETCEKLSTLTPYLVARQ
MenB inh – Mtb MenB enzyme inhibition; P9WNP5; MenB enzyme assay, absorbance read-out; some hits fall short of the stated cut; inhibition, %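 (about 12 µg/mL by stock and volumes)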; 100,000 compounds, 0.43% hits;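 active = mean of two replicates above 30%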;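 also: 0% = no compound and 100% = wells with inactive enzyme; the first replicate is given; strong numbers were not always called active; inactives centre near -10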
PV pol inh – poliovirus RNA polymerase inhibition. P03300. poliovirus polymerase elongation, fluorescence polarization; active compounds read low. % elongation, % (compound at 16.7 µg/mL). 150,000 compounds, 0.66% hits; in the data active = % elongation below about 90%; also: some results filed as inactive read as strong as hits
Target sequence (P03300 1749-2209 limits assumed): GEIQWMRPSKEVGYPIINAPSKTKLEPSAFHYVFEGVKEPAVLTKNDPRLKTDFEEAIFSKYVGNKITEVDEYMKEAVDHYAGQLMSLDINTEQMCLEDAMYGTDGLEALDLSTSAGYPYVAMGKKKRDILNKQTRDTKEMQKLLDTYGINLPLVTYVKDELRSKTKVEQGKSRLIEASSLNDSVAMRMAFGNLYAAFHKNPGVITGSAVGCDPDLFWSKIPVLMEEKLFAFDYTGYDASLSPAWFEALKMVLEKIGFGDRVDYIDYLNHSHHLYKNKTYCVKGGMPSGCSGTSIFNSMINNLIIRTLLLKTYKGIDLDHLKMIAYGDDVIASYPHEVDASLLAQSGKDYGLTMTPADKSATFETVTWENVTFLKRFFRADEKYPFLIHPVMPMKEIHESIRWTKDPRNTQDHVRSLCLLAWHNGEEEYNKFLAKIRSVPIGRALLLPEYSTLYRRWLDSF
PV pol inh intensity – recorded beside PV pol inh, whose call it bears; % elongation; measured here: total intensity read-out; formula for this scale not given here;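 total fluorescence in place of polarization; lower means less elongation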
Numbers without * were called inactive.

`COc1ccc(-c2nn(CCC#N)cc2C#N)cc1` gave MenB inh -18, PV pol inh 101 and PV pol inh intensity 99.
For Cc1[nH]c2ccc(C(=O)OCC(=O)c3cc4ccccc4o3)cc2c1C the results were MbtI inh 0, MenB inh -19, PV pol inh 105 and PV pol inh intensity 111.
`CCSc1nnc(-c2cc(Br)ccc2N)c(=O)[nH]1` gave MbtI inh 49, MenB inh 7, PV pol inh 101 and PV pol inh intensity 100.
For COC(=O)C1=C(C)NC(=O)C1(Nc1nc2ccccc2s1)C(F)(F)F (stereo not drawn) the results were MbtI inh 12, MenB inh -26, PV pol inh 102 and PV pol inh intensity 100.
Cc1sc(N)c(C#N)c1-c1ccc(Cl)cc1Cl was read as MenB inh -30, PV pol inh 108 and PV pol inh intensity 103.
Screening COc1ccc(CN(C)C(=O)c2cccc(N(C)C)c2)cc1 returned MbtI inh -29, MenB inh -17, PV pol inh 102 and PV pol inh intensity 90.
For COC(=O)c1c(NC(=O)c2cccs2)sc2c1C(C(=O)OC)CC2 (stereo not drawn) the results were MbtI inh 113 and MenB inh -35.
Screening c1ccc(CNCc2cccn2-c2nnc(N3CCCCC3)s2)cc1 returned MbtI inh 4, MenB inh 1, PV pol inh 102 and PV pol inh intensity 106.
`CCOc1ccc(Br)cc1S(=O)(=O)n1cccc1` gave MbtI inh -8, PV pol inh 99 and PV pol inh intensity 105.
For COc1ccc(NC(=O)c2ccc(COc3cccc(C)c3)o2)cc1 the results were MbtI inh 2, MenB inh 23, PV pol inh 102 and PV pol inh intensity 101.

Brought forward from above: seven compounds, then new ones.
For COC(=O)C1=C(C)NC(=O)C1(Nc1nc2ccccc2s1)C(F)(F)F (stereo not drawn) the results were MbtI inh 12, MenB inh -26, PV pol inh 102 and PV pol inh intensity 100.
Cc1sc(N)c(C#N)c1-c1ccc(Cl)cc1Cl was read as MenB inh -30, PV pol inh 108 and PV pol inh intensity 103.
Screening COc1ccc(CN(C)C(=O)c2cccc(N(C)C)c2)cc1 returned MbtI inh -29, MenB inh -17, PV pol inh 102 and PV pol inh intensity 90.
For COC(=O)c1c(NC(=O)c2cccs2)sc2c1C(C(=O)OC)CC2 (stereo not drawn) the results were MbtI inh 113 and MenB inh -35.
Screening c1ccc(CNCc2cccn2-c2nnc(N3CCCCC3)s2)cc1 returned MbtI inh 4, MenB inh 1, PV pol inh 102 and PV pol inh intensity 106.
`CCOc1ccc(Br)cc1S(=O)(=O)n1cccc1` gave MbtI inh -8, PV pol inh 99 and PV pol inh intensity 105.
For COc1ccc(NC(=O)c2ccc(COc3cccc(C)c3)o2)cc1 the results were MbtI inh 2, MenB inh 23, PV pol inh 102 and PV pol inh intensity 101.
Screening COc1ccccc1NS(=O)(=O)c1cccc(Cl)c1 returned MbtI inh -8, MenB inh -7, PV pol inh 104 and PV pol inh intensity 109.
For O=C(COc1ccc2c3c(c(=O)oc2c1)CCC3)c1ccc(N2CCCC2)cc1 the results were MbtI inh -10, MenB inh -22, PV pol inh 101 and PV pol inh intensity 102.
CNC(=O)[C@H]1O[C@@H](n2cnc3c(NCc4cccc(I)c4)ncnc32)C(O)[C@H]1O (stereo partly drawn) was read as MbtI inh -20, PV pol inh 100 and PV pol inh intensity 101.
COc1ccccc1OCC(O)CN1CCOCC1 (stereo not drawn) was read as MbtI inh 2, MenB inh 35*, PV pol inh 103 and PV pol inh intensity 99.
For COc1ccccc1C(=O)OCC(=O)N1CCCCCC1 the results were MbtI inh -6, PV pol inh 103 and PV pol inh intensity 106.
For Cc1nc2sccn2c1C(=O)N/N=C\c1ccc(CNS(=O)(=O)c2ccc(Cl)cc2)o1 the results were MbtI inh 1, MenB inh -4, PV pol inh 101 and PV pol inh intensity 103.
For O=C(c1ccccc1)N(c1ccc2oc(=O)sc2c1)S(=O)(=O)c1ccccc1 the results were MbtI inh -99, MenB inh -24, PV pol inh 98 and PV pol inh intensity 104.
CC(=O)N1CCN(CC(=O)NCCc2ccc(Cl)cc2)CC1 was read as MbtI inh 9, MenB inh -3, PV pol inh 95 and PV pol inh intensity 102.
For CCC(=O)Nc1cc(-c2nn(C)c(=O)c3ccccc23)ccc1N1CCCCC1 the results were MbtI inh -2, MenB inh -35, PV pol inh 102 and PV pol inh intensity 102.
Screening O=C(O)Cc1ccc(NC(=S)Nc2ccc3c(c2)OCO3)cc1 returned MbtI inh 21, MenB inh -12, PV pol inh 101 and PV pol inh intensity 100.
For Cn1c(C(C#N)/C(=N\S(=O)(=O)c2ccccc2)c2ccccc2)nc2ccccc21 (stereo not drawn) the results were MbtI inh -8, MenB inh -12, PV pol inh 101 and PV pol inh intensity 104.
Screening Cc1c(C(=O)NC2CCCCC2)c(C)n2cnn(CC(=O)NCCCN3CC(C)CC(C)C3)c(=O)c12 (stereo not drawn) returned MbtI inh 18, MenB inh 8, PV pol inh 101 and PV pol inh intensity 103.
CC(C)NC(=O)N(Cc1ccccc1)Cc1cccs1 was read as MbtI inh -3, MenB inh 3, PV pol inh 98 and PV pol inh intensity 99.
For O=C(CSc1nnnn1-c1ccc2c(c1)OCCO2)c1ccc2c(c1)OCCO2 the results were MbtI inh -20, MenB inh 6, PV pol inh 99 and PV pol inh intensity 99.
For Cc1cc(C)c2c(c1)C(=O)CCC2 the results were MbtI inh 5, MenB inh 1, PV pol inh 98 and PV pol inh intensity 105.
Screening O=C(NC(=O)c1ccccc1O)c1ccc(F)cc1 returned MbtI inh 13, MenB inh 16, PV pol inh 99 and PV pol inh intensity 102.
CC1CCCN(S(=O)(=O)c2ccc(NC(=O)CSc3nc4ccccc4o3)cc2)C1 (stereo not drawn) was read as MbtI inh -2, MenB inh -26, PV pol inh 103 and PV pol inh intensity 103.
For Cn1cc(C(F)(F)F)ccc1=S the results were MbtI inh 13, MenB inh -11, PV pol inh 99 and PV pol inh intensity 103.
COc1ccc(C2C3=C(Nc4ncnn42)c2ccccc2CCC3)cc1 (stereo not drawn) was read as MbtI inh 7, MenB inh 7, PV pol inh 99 and PV pol inh intensity 104.
For CCc1ccc(NC2c3ccccc3C(=O)N2c2ccccc2C)cc1 (stereo not drawn) the results were MbtI inh 5, MenB inh -17, PV pol inh 99 and PV pol inh intensity 96.
For C1CCC(NC2=NCCC2)CC1 the results were MbtI inh -5, PV pol inh 101 and PV pol inh intensity 103.
Nc1nc(SCc2nc(-c3ccccc3)no2)n[nH]1 was read as MbtI inh -2, MenB inh -12, PV pol inh 109 and PV pol inh intensity 112.
COc1cc2c(cc1OC)C(=NC(C)C(=O)O)NC(C)(C)C2 (stereo not drawn) was read as MenB inh -3, PV pol inh 104 and PV pol inh intensity 109.
Screening COC(=O)c1oc2c(c1C)C(=O)CCC2 returned MbtI inh -2, MenB inh -25, PV pol inh 107 and PV pol inh intensity 107.
`CC(Oc1cccc(Cl)c1)C(=O)N(C)Cc1nc(-c2ccccc2)no1` (stereo not drawn) gave MbtI inh -3, MenB inh -4, PV pol inh 102 and PV pol inh intensity 101.
Screening O=C(CN1C2=NCCN2c2ccccc21)c1ccco1 returned MbtI inh -7, MenB inh -3, PV pol inh 101 and PV pol inh intensity 102.
Screening Cc1ccn(CCC(=O)O)n1 returned MbtI inh -13, MenB inh 12, PV pol inh 100 and PV pol inh intensity 103.
`O=C(CSc1nnc(-c2cccs2)o1)N1c2ccccc2OCC1c1ccccc1` (stereo not drawn) gave MbtI inh -38, MenB inh -24, PV pol inh 109 and PV pol inh intensity 117.
For CCOC(=O)c1ccccc1NC(=O)Cn1c(=O)n(-c2cc(C)cc(C)c2)c(=O)c2sccc21 the results were MbtI inh -5, MenB inh 4, PV pol inh 102 and PV pol inh intensity 105.
For COc1ccc(C2CC(=O)N3C(=C2C#N)SCC3(O)c2ccccc2)cc1 (stereo not drawn) the results were MbtI inh 9, MenB inh -2, PV pol inh 99 and PV pol inh intensity 102.
Cc1cc(NC(=O)/C(C#N)=C/c2ccc(Cl)cc2)n(-c2ccccc2)n1 was read as MbtI inh -1, MenB inh -15, PV pol inh 100 and PV pol inh intensity 105.
`Cc1nn(C(C)(C)C)c(OC(=O)c2cccs2)c1Sc1ccccc1` gave MbtI inh -8, MenB inh 6, PV pol inh 100 and PV pol inh intensity 100.
For COc1ccc(C2c3cccn3CCN2C(=O)Nc2cccs2)cc1OC (stereo not drawn) the results were MbtI inh 2, MenB inh -3, PV pol inh 106 and PV pol inh intensity 115.
`CCCNC(=O)N1CC(O)CC1C(N)=O` (stereo not drawn) gave MbtI inh -4, MenB inh -7, PV pol inh 98 and PV pol inh intensity 98.
Screening CN(C(=O)COc1ncnc2ccccc12)c1ccccc1 returned MbtI inh 0, PV pol inh 103 and PV pol inh intensity 108.
Screening CC(=C1C(=O)c2ccccc2C1=O)N1CCc2ccccc2C1 returned MbtI inh 13, MenB inh -65, PV pol inh 89* and PV pol inh intensity 93*.
Screening CN1CCC(=NNC(=O)c2ccc3c(c2)NC(=O)C(C)(C)O3)CC1 returned MbtI inh -15, MenB inh -65, PV pol inh 103 and PV pol inh intensity 104.
Cc1cccc(NC(=O)CCCN2C(=O)CCC2=O)c1C was read as MbtI inh -3, MenB inh -9, PV pol inh 102 and PV pol inh intensity 104.
For O=C1CN(C(=O)COC(=O)Cc2ccccc2)c2ccccc2N1 the results were MbtI inh -6, PV pol inh 101 and PV pol inh intensity 98.
O=C(c1cccs1)c1coc2ccc(O)c(CN3CCOCC3)c12 was read as MenB inh -13, PV pol inh 100 and PV pol inh intensity 109.
O=C(O)C(Cc1ccccc1)NS(=O)(=O)c1cccc2cccnc12 (stereo not drawn) was read as MbtI inh -6, MenB inh -9, PV pol inh 100 and PV pol inh intensity 105.
For CC1CCN(CC(=O)N2CCN(c3ccccc3)CC2)CC1 the results were MbtI inh -3, MenB inh -10, PV pol inh 101 and PV pol inh intensity 99.
`CCCC(C(=O)O)N1Cc2ccccc2C1=O` (stereo not drawn) gave MbtI inh -2, MenB inh -21, PV pol inh 103 and PV pol inh intensity 105.
Screening COc1ccc(O)c(/C=N/c2nc3ccccc3s2)c1 returned MbtI inh 2, MenB inh -26, PV pol inh 101 and PV pol inh intensity 100.
Screening COCC(=O)N1N=C(c2cccc(NS(C)(=O)=O)c2)CC1c1ccccc1C (stereo not drawn) returned MbtI inh 1, MenB inh 2, PV pol inh 101 and PV pol inh intensity 104.
COC1(C(=O)NN)COc2ccccc2O1 (stereo not drawn) was read as MbtI inh -6, MenB inh -21, PV pol inh 102 and PV pol inh intensity 96.
O=C(Nc1ccccc1Cc1ccccc1)c1cc2c(nc3sccn32)s1 was read as MbtI inh 21, MenB inh -11, PV pol inh 108 and PV pol inh intensity 111.
Cc1ccc(N2CC(NC(=O)N(C)C3CCN(C)CC3)CC2=O)cc1C (stereo not drawn) was read as MbtI inh -8, MenB inh -25, PV pol inh 104 and PV pol inh intensity 95.
CCS(=O)(=O)c1nc(S(=O)(=O)c2ccc(Cl)cc2)c(NCc2ccc(OC)cc2)s1 was read as MbtI inh -2, MenB inh -8, PV pol inh 104 and PV pol inh intensity 106.
Screening CCN1CCN(C(c2cccnc2)c2ccc3cccnc3c2O)CC1 (stereo not drawn) returned MbtI inh 89*, MenB inh -45, PV pol inh 87* and PV pol inh intensity 101*.
For CC1=C/C(=N\OC(=O)Cc2ccccc2)C(C)=CC1=O the results were MbtI inh 3, MenB inh -135, PV pol inh 104 and PV pol inh intensity 102.
For COc1ccccc1OCc1nc(-c2ccncc2)no1 the results were MenB inh 0, PV pol inh 97 and PV pol inh intensity 106.
Screening CS(=O)(=O)n1cnc2ccccc21 returned MbtI inh -8, MenB inh 6, PV pol inh 103 and PV pol inh intensity 103.
`CCc1cc2c(NC3CCCCC3)ncnc2s1` gave MbtI inh -9, PV pol inh 99 and PV pol inh intensity 92.

Of the compounds above, these contain an NH in an aromatic ring.
For Cc1[nH]c2ccc(C(=O)OCC(=O)c3cc4ccccc4o3)cc2c1C the results were MbtI inh 0, MenB inh -19, PV pol inh 105 and PV pol inh intensity 111.
`CCSc1nnc(-c2cc(Br)ccc2N)c(=O)[nH]1` gave MbtI inh 49, MenB inh 7, PV pol inh 101 and PV pol inh intensity 100.
Nc1nc(SCc2nc(-c3ccccc3)no2)n[nH]1 was read as MbtI inh -2, MenB inh -12, PV pol inh 109 and PV pol inh intensity 112.

Screens (PubChem BioAssay)
